Tgondii IFNg – inhibitors of Toxoplasma gondii growth with IFN-gamma | Toxoplasma gondii growth in IFN-gamma-treated host cells; stronger effect = lower value; reference of the scale not given here | activity change, negative = inhibition, %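 (about 20 µM by stock and volumes)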 | 69,000 tested, 3.8% active | AID 1259416;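 active = below -70%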;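 also: host cells are HeLa cells infected with Toxoplasma gondii; parasite growth read as luciferase light; one replicate is shown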
* hit, by the source's call; & = joins results of further samples. Only part of the results is shown; the hit share may differ from the screen's.

Structure,Tgondii IFNg
OC[C@@H]1[C@@H](c2ccccc2)C2(CN(Cc3cc(F)ccc3F)C2)N1CC1CCCC1,-51.1
CN(Cc1ccco1)[C@H]1CN(c2ncccn2)C2CCCOC21 (stereo partly drawn),0.8
NS(=O)(=O)c1ccc(CN2Cc3ncccc3C2=O)cc1,-2.4
Cc1ccc(-c2csnn2)cc1NC(=O)Cc1csc(-c2ccccc2)n1,32.0
COc1ccccc1NC(=O)N1[C@@H]2CNC[C@H]1C2c1ccc(-c2ccccc2C)cc1 (stereo partly drawn),-12.7
CS(=O)(=O)N1CCCC(C(=O)NCc2ccc(Cl)cc2)C1 (stereo not drawn),-16.7
COc1ccccc1S(=O)(=O)N1[C@@H]2CNC[C@H]1C2c1ccc(-c2ccncc2)cc1 (stereo partly drawn),-2.6&18.8
CCS(=O)(=O)N1CCC2(CC1)OC(=O)C(C)=C2C(=O)NCCCN1CCCC1,28.9
COCCN1C2(CCN(C(C)=O)C2)c2ccccc2S1(=O)=O (stereo not drawn),16.7
CC1(C)Cc2nc3sc4c(Cl)ncnc4c3cc2CS1,42.2
O=C(c1ccco1)N1CCC2(CC1)CN(Cc1cccnc1)CC21CCNC1=O (stereo not drawn),4.4
COc1ccc(CN2CC[C@H]3OCC[C@@H](C(=O)N4CCCO4)[C@@H]3C2)cc1,4.9
Cc1ccn(CC(C)C(=O)N2CCS(=O)(=O)CC2)n1 (stereo not drawn),3.0
CCCCc1ncc(C2=NS(=O)(=O)c3ccccc3N2)[nH]1,42.8
CCOc1ccc(-c2nc3c(s2)CN(C(=O)Nc2cc(C)ccc2C)CC3)cc1,-112.4*
COC(=O)c1ccc(-c2noc(CN3CCc4[nH]ncc4C3)n2)cc1,1.1
CO[C@@H]1CN(C)C(=O)c2ccc(NC(=O)c3ccccc3F)cc2OC[C@H](C)N(C)C[C@@H]1C,50.9
CCCC1C=CCN1C(=O)c1cc(COc2ccccc2)[nH]n1 (stereo not drawn),6.1
Cc1[nH]c2c(CNC(=O)c3ccc[nH]3)cc(F)cc2c1C,1.9
CO[C@@H]1CN(C)C(=O)c2cc(NC(=O)NC(C)C)ccc2OC[C@H](C)N(Cc2ccccc2)C[C@@H]1C,87.0
C[C@@H]1C(=O)N[C@H](c2ccc3c(c2)OCO3)CC=CC[C@H](C)Oc2ccccc2C(=O)N1C (mixture of isomers),-28.2
CC(C)CC(C(=O)NC1CCCC1)N(C(=O)c1ccc(Cl)nc1)c1ccccc1 (stereo not drawn),4.0
CC1CC(N(C(=O)c2ccco2)c2ccccc2)c2ccccc2N1C(=O)c1ccco1 (stereo not drawn),24.3
COCCC1COC2(CCCN(C(=O)c3ccoc3)C2)C1 (stereo not drawn),-57.0
CCc1cccc(NC(=O)CCC(=O)N2CCC[C@H]2C(N)=O)c1,-4.1
Cc1ccc(CNC(=O)Cn2ncc3c(N4CCN(c5ccccn5)CC4)ncnc32)cc1C,134.1
CNC[C@@H]1OCCCC[C@@H](C)Oc2ccc(NS(=O)(=O)c3ccc(F)cc3)cc2C(=O)N([C@@H](C)CO)C[C@@H]1C,-52.5
CC(CNc1nc(-c2nnc(-c3ccccc3)o2)nc2ccccc12)c1ccccc1 (stereo not drawn),-115.4*
CN1CCN([C@@H]2CCN(c3ccc4ccccc4n3)C[C@H]2O)CC1,-42.2
COc1cc(NC(=O)CN2C(=O)CCc3cc(Br)ccc32)cc(OC)c1OC,409.4
COCCN1C(=O)CCc2cc(NC(=O)C3CC3)ccc21,45.2
C[C@@H]1CN(Cc2ccccn2)CC[C@]12CCC(C(=O)N1CCCC1)O2 (stereo partly drawn),-33.3
CNC(=O)c1sc2ccccc2c1CC1CCCN1C(=O)CCc1nc(C(C)C)no1 (stereo not drawn),-8.6
OC[C@H]1[C@H](c2ccc(-c3cccnc3)cc2)[C@H]2CN(Cc3ccccn3)CCCCN21,1.0
Cc1ccc(C(c2ccc(C)o2)c2cc(Br)cc(Br)c2O)o1,4.7
CCn1ncc(S(=O)(=O)N2CCC(c3nc(C)n4ccsc34)CC2)c1C,50.5
Cc1nc(-c2cccc(F)c2)sc1CCNC(=O)c1cccs1,-29.7
O=C(c1cccs1)N1CC[C@H]2[C@@H]1CCN2CC1CCOCC1,0.8
Cc1nc([C@@H]2C[C@@H]3CN(Cc4sccc4C)C[C@@H]3O2)n[nH]1,-10.6
Cc1nnc(SCC(=O)Nc2cccc(Cl)c2N2CCCCC2)o1,182.9
O=C(CC1COCCN1)N1CCc2[nH]nc(C3CCC3)c2C1 (stereo not drawn),1.0
CCn1c(C2CCNCC2)nn(CCn2ccc(C)n2)c1=O,6.3
CCN(Cc1nccn1C)C(=O)CC1C(=O)NCCN1Cc1cccnc1 (stereo not drawn),-6.9
Cc1cccc(NC(=O)NCC(c2cccnc2)c2c[nH]c3ccccc23)c1 (stereo not drawn),456.7
Cc1cc(C)c(NC(=O)COc2nc(C)nc3ccccc23)c(C)c1,-13.5
CO[C@@H]1CC[C@@H]2CCN(C)C(=O)[C@H](C)N(C)C(=O)c3cccc(C#N)c3OC[C@H]1O2,79.0
CN1CCCN(C(=O)c2cc3c(c4ccccc4n3CC3CC3)n2C)CC1,-24.0
O=C(NCc1csc(-c2cnccn2)n1)[C@H]1Cc2ccccc2CN1,10.2

In the list so far, five contain fluorine.
Structure,Tgondii IFNg
OC[C@@H]1[C@@H](c2ccccc2)C2(CN(Cc3cc(F)ccc3F)C2)N1CC1CCCC1,-51.1
CO[C@@H]1CN(C)C(=O)c2ccc(NC(=O)c3ccccc3F)cc2OC[C@H](C)N(C)C[C@@H]1C,50.9
Cc1[nH]c2c(CNC(=O)c3ccc[nH]3)cc(F)cc2c1C,1.9
CNC[C@@H]1OCCCC[C@@H](C)Oc2ccc(NS(=O)(=O)c3ccc(F)cc3)cc2C(=O)N([C@@H](C)CO)C[C@@H]1C,-52.5
Cc1nc(-c2cccc(F)c2)sc1CCNC(=O)c1cccs1,-29.7

(further entries)
Structure,Tgondii IFNg
Cc1nc(CN(C)C(=O)c2ccccc2-c2ncc[nH]2)no1,2.0
O=C(c1ccc(-n2cccn2)cc1)N1CCc2ccccc2C1,-30.2
CCOc1ccc(NC(=O)c2nc(Nc3ccc(Cl)cc3)c3ccccc3n2)cc1,1.3
CC(C)N1CCO[C@H]2CN(S(=O)(=O)c3cccs3)CC[C@@H]2C1,-8.7
Cc1ccc(S(=O)(=O)N(C)C[C@H]2Oc3c(NS(C)(=O)=O)cccc3C(=O)N([C@H](C)CO)C[C@H]2C)cc1,-5.9
CS(=O)(=O)N1CCC(C(=O)NCCC2=CCCCC2)CC1,7.5
CSCCCN(C)Cc1cccc2ncccc12,-32.2
Cc1cccc(S(=O)(=O)N2CCn3cnc(COCC4CC4)c3C2)c1,3.9
CC(C(=O)N(C)C)N(C)Cc1ccc(-c2ccn[nH]2)o1 (stereo not drawn),-46.7
Cc1ccc(-n2nc(-c3ccc(OC(F)(F)F)cc3)cc2NC(=O)C2CCC2)cc1C,-61.3
Cc1cccc(SC2CCN(C(=O)c3cn(-c4ccccc4)nn3)CC2)c1,-18.6
COc1ccccc1OCCn1c(C(F)(F)F)nc2cc3c(cc21)OCCCO3,-23.3
O=C(NCCc1csc(-c2ccc(F)cc2)n1)c1cccc(Cl)c1,-45.8
CC1=NN(C(=O)COc2ccccc2)C(O)(c2cccnc2)C1 (stereo not drawn),-13.8
COCCNC(=O)Cn1ncc2c(N3CCN(c4ccccn4)CC3)ncnc21,129.2
O=C(Nc1ccccc1)N1CCCn2nnc(CN3CCCCC3)c2C1,-1.1
CC(C)CN1CCC(CNC(=O)c2ccc(-c3ccc4c(c3)OCCO4)nc2)C1 (stereo not drawn),16.0
CCCC(=O)Nc1ccc2c(c1)C(=O)N(C)C[C@@H](OC)[C@@H](C)CN(Cc1ccc(F)cc1)[C@@H](C)CO2,-9.7
Cn1nccc1C(=O)N1C[C@H]2OC(=O)N(CCc3cccc(Cl)c3)[C@H]2C1,-38.4
COc1cc2c(N3CCN(C(=O)Nc4ccc(OC(C)C)cc4)CC3)ncnc2cc1OCCCN1CCCCC1,-17.2
c1cc(CN2CC[C@H]3[C@@H](CO[C@@H]3Cc3nnc(C4CC4)o3)C2)co1,-2.4
COc1cc(CNC2(c3ccccc3F)CCCC2)ccc1OCc1c(C)noc1C,-37.2
COc1ccc(-c2ccccc2[C@@H]2[C@H](C#N)N(C(=O)C3CCC3)[C@H]2CO)cc1,-37.1
Cc1ccc(-c2cc(C(=O)Nc3cccc(Cn4cncn4)c3)[nH]n2)cc1,165.8
CCC(c1nc2ccc(C)cc2[nH]1)n1cnc2sc3c(c2c1=O)CCNC3 (stereo not drawn),-36.9
COc1cccc(-c2ccc3c(c2)[C@H]2[C@H](CCN2S(=O)(=O)c2ccccc2F)[C@H](CO)N3)c1,-55.3
COc1cccc(N2C(=O)CC(c3c[nH]c4ccccc34)C2=O)c1 (stereo not drawn),6.4
COC(=O)CC(=O)NC(CSC(=O)Nc1ccc(OC(F)(F)F)cc1)C(=O)OC (stereo not drawn),-6.9
COc1cccc(NC(=O)NCCN2CCN=C2C)c1,29.3
Cc1oc(-c2ccc(C(=O)NCc3cccc(Cl)c3)cc2)nc1CN1CCc2ccccc21,-55.6
COC(=O)c1cc(C)nc2c1c(=O)n(Cc1nc(-c3ccccc3)oc1C)c(=O)n2C,-27.1
CCOC(=O)N1CCN(C(=O)c2ccc(N3CCC(NCCCn4cccn4)CC3)cc2)CC1,-1.2
CC(C)C(=O)NCCc1csc(C2CCCN(C(=O)/C=C/c3ccccc3Cl)C2)n1 (stereo not drawn),-54.5
CCOC(=O)c1cc(C)nc2c1c(=O)n(Cc1nc(-c3cccc(C)c3)oc1C)c(=O)n2C,-17.4
CC/C(=C1/C(=O)CC(C)(C)C(C(=O)OC)C1=O)N1CCCC1 (stereo not drawn),-9.5
COc1ccc(CNC(=O)Nc2ccc(-c3nc(-c4cc(C)ccc4C)co3)cc2)cc1,17.0
CC(C)c1nnsc1CNC(=O)c1ccc(C#CC(C)(C)O)o1,108.0
Cc1ccc(-c2coc(-c3ccc(NC(=O)CC(C)C)cc3)n2)cc1,-20.2
N#C[C@H]1[C@@H](c2ccccc2C2=CCCCC2)[C@@H](CO)N1C(=O)CN1CCOCC1,4.2
Cc1ccccc1NC(=O)Cc1cccs1,16.4
CC1(C)Cc2cc(CN3CCCC3c3ccc(C(=O)N4CCOCC4)cn3)ccc2O1 (stereo not drawn),29.1
COc1ccc2c3c([nH]c2c1)[C@H](CO)N(Cc1nccs1)CC31CCN(Cc2cccnc2)CC1,121.9
CCN1CCC2(CC1)OC(=O)C(C)=C2C(=O)Nc1ccc(OC)cc1OC,178.3
Nc1ncnc(SCc2c(Cl)cccc2Cl)n1,-81.0*
CCN1c2cc(C)ccc2-n2cccc2C12CCN(C(=O)Nc1cc(C)ccc1C)CC2,17.0
Cc1nc(NS(C)(=O)=O)sc1C(=O)NCc1cccc(N2CCCCC2)c1,-6.2
C[C@@H]1CN([C@H](C)CO)C(=O)c2cc(NC(=O)NC3CCCCC3)ccc2O[C@@H]1CN(C)S(C)(=O)=O,-55.5
Cc1nn2c(nc1=O)SCC(c1ccccc1)=N2,23.7
O=C(N[C@H]1CC[C@@H](CC(=O)N2CCOCC2)O[C@@H]1CO)c1cccc(F)c1,24.9
CC1CCCCN1S(=O)(=O)c1ccc(NC(=O)c2cnccn2)cc1 (stereo not drawn),58.2
C[C@@H]1CCCCO[C@H](CN(C)Cc2ccncc2)[C@H](C)CN([C@@H](C)CO)C(=O)c2cc(NS(=O)(=O)c3ccc(Cl)cc3)ccc2O1,32.4
O=C(NCc1cccnc1N1CCCC(O)C1)c1ccc2c(c1)OCO2 (stereo not drawn),0.5
Cc1oc(-c2ccc(C(=O)NCc3cccc(F)c3)cc2)nc1CN1CCN(c2ccccc2)CC1,14.2
O=C(O)C1CCN(c2ncnc3ccccc23)CC1,33.8
CN1C(=O)c2cc(NC(=O)c3cscn3)ccc2OC[C@@H]2O[C@@H](CC(=O)N3CCOCC3)CC[C@H]21,-4.3
Cc1ccccc1C1(O)CCN(C(=O)c2cc(=O)c3ccccc3o2)C1 (stereo not drawn),-11.9
CC(=O)N1CCC(C(=O)NCc2ccccc2)(N(Cc2ccccc2F)C(=O)c2ccc(C)cc2)CC1,3.0
O=C(CN1C(=O)CCc2cc(S(=O)(=O)N3CCCCC3)ccc21)NC1CCCCCCC1,-9.6
Cc1ccc(-n2ncc(-c3nn[nH]n3)c2N)cc1,45.7
COc1ccc2c(c1)NC1(CCN(S(=O)(=O)c3ccc4ccccc4c3)CC1)c1cccn1-2,-5.7

The list continues:
Structure,Tgondii IFNg
COc1ccc(-c2nc(CN(c3cccc(OC)c3)S(=O)(=O)c3ccc(C)cc3)c(C)o2)cc1,5.4
COc1ccc(OC)c(CNC(=O)Cn2ncc3c(N4CCC(C)CC4)ncnc32)c1,261.4
COc1ccc(NC(=O)N2CCC3(CC2)Nc2cccnc2NC3=NC2CCCC2)c(C)c1,11.8
CC(=O)c1c(O)cc(O)cc1O,19.4
O=C(CN1C(=O)/C(=C/c2cccc(Br)c2)SC1=S)Nc1cccnc1,-10.2
CC(C)n1c2ccccc2c2c1cc(C(=O)N1CCCCC1)n2-c1ncccn1,-17.3
CO[C@@H]1CC[C@@H]2CCOc3c(C#N)cccc3C(=O)N(C)C[C@@H](OC)[C@@H](C)C(=O)N(C)C[C@@H]1O2,-29.5
CNC(=O)[C@@H]1C[C@H](N)CN1C(=O)c1ccccc1C(=O)c1ccc(C)cc1,2.0
COc1ccc(-c2nc(N3CCN(c4cccc(Cl)c4)CC3)c3ccccc3n2)cc1,-18.5
CN(CCn1ccc2ccccc21)Cc1cnc(N)nc1,-1.1
